Screening data from PubChem.
Cruzain Triton – qHTS Assay for Promiscuous and Specific Inhibitors of Cruzain (with detergent); purified cruzain, Z-FR-AMC fluorescence, 0.01% Triton; Potency, µM, inactives show max response, negative = inhibition, usual class: inhibitors; 200,000 tested, 0.43% active;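 also: plate controls were neutral wells for no effect and buffer without enzyme for full effect; nearly all actives have a fitted effect of over 40% in size; top concentration of the series not given in the record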
Target sequence (P25779 123-467 limits assumed): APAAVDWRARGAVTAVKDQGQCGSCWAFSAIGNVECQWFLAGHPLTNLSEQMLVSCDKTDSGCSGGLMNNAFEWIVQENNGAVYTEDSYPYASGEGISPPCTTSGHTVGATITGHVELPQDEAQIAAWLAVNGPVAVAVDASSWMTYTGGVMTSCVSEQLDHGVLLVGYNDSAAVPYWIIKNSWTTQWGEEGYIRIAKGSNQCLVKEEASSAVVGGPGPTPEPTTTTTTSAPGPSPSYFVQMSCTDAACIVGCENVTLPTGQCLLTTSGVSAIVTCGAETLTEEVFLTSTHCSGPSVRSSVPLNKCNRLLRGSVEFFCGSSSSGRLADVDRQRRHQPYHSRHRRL
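In this qHTS format, compounds are incubated with 1.5 nM cruzain for 15 min at room temperature before 2 uM Z-FR-AMC is added. Release of AMC is followed at 360/450 nm, and progress is taken as the 60 s fluorescence difference.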
2A StopGo – High Throughput Screening for Foot and Mouth Disease Virus Antivirals; human cells with a luciferase reporter of 2A StopGo recoding; control for the full effect not named in the record; 410,000 tested, 1.2% active; Potency, µM (series often up to 57.9 µM), without a hit: at the highest dose signal change, negative = less light; AID 1159524, 2015; active = well fitted falling curve with a large enough effect; inconclusive = small, poorly fitted or top-dose-only effect; inactive = no such curve, though single readings can be large or run the other way; tested in HEK293T cells; also: nearly all actives have a fitted effect of over 45% in size; luciferase light after 4 h
Cruzain inh noDet – qHTS Assay for Promiscuous and Specific Inhibitors of Cruzain (without detergent). Cruzipain (Trypanosoma cruzi), P25779. purified cruzain, Z-FR-AMC fluorescence, no detergent. Potency, µM, without a hit: max response, negative = inhibition, actives largely listed as inhibitors. 200,000 tested, 2.3% active. AID 1476, 2009;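 also: plate controls were enzyme without inhibitor for no effect and buffer without enzyme for full effect; nearly all actives have a fitted effect of over 40% in size; top concentration of the series not given in the record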
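Detergent-free condition (0.00005% Triton X-100) in acetate buffer pH 5.5 with DTT. 1.5 nM enzyme and compound were pre-mixed 15 min, then 2 uM Z-FR-AMC substrate added; reaction progress from fluorescence change between first and third reads (60 s).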
The depositor's hits bear a star; ? = inconclusive; & = joins results of further samples; [ ] = remark or other dose. Unless noted, calls follow the shape of the dose curve; as a rule, active = well fitted curve in the direction sought with a large enough effect; inconclusive = small, poorly fitted or top-dose-only effect, or another doubt; inactive = no such curve, though single readings can be large; an effect the other way counts as inactive or inconclusive. Unless noted, % is scaled to controls: 0 for no effect and ±100 for the full control effect; potency is read from the fitted curve at half-maximal effect. Some of the compounds tested, so the mix of outcomes need not match the whole.

SMILES	Cruzain Triton	2A StopGo	Cruzain inh noDet
N#Cc1cccc(NC(=O)N2CC[C@@]3(CCCN(S(=O)(=O)c4ccccc4)C3)C2)c1	7.4%	-29%	-6%
Cc1nc(N)sc1CCN	2.9%	-4%&0%	6%
COc1cccc(-c2cc(NCc3ccccc3OC)ncn2)c1	-7.4%	1%	3%
CS(=O)(=O)Nc1cccc(-c2cncnc2Nc2ccc(F)cc2)c1	8.0%	-17%	7%
COc1ccccc1CN1CCCC2(CCN(C(=O)c3ccco3)CC2)C1	3.7%	0%	-9%
O=c1oc2ccccc2c(O)c1C(c1ccccc1O)c1c(O)c2ccccc2oc1=O	-3.9%	-1%	-16%
CNCC/C=C\c1cccnc1	2.1%	-15%	17%
COc1cccc(-c2cc(N(C)Cc3ccco3)ncn2)c1	-0.7%	-6%	-7%
c1ccc(Nc2ncncc2-c2ccoc2)cc1	9.0%	-1%	10%
COc1cc(O)c2c(c1)C(=O)c1cc(C)cc(O)c1C2=O	2.1%	1%	-2%
C/C=C1/CN2CC[C@]34C(=C(C=O)[C@@H]1C[C@H]23)Nc1c(O)cccc14	1.3%	0%	-6%
COc1ccc(CNc2ncncc2-c2ccccc2C)c(OC)c1	4.0%	-20%	13%
CC(=O)NCCNc1ncnc2ccc(-c3ccc4c(c3)OCO4)cc12	-5.5%	14%	-8%
C=C1CCC2C(CC2(C)C)C(=C)CC/C1=N/O (stereo not drawn)	4.1%	6%	-7%
FC(F)(F)c1ccccc1-c1cncnc1NCc1cccnc1	-0.9%	4%	-9%
CCNc1ncc2nc(-c3cn(C)c4ccccc34)c(=O)n(-c3ccccc3)c2n1	1.4%	8%	-9%
CCCCCCCCCCCCCCC(C(=O)OC)C(O)(CC(=O)OC)C(=O)OC (stereo not drawn)	-0.8%	1%	28%
c1csc(CNc2ccnc(-c3ccc4c(c3)OCO4)n2)c1	-16%	-17%	2%
O=C1Nc2ccccc2C2(CCN(CCc3ccc(C(F)(F)F)cc3)CC2)O1	-11%	?	-3%
O=c1cnc2cnc(Oc3cccc(Cl)c3)nc2n1C[C@H]1CCCO1	-1.7%	-10%	-2%
COc1ccc(CNc2ccnc(-c3ccccc3C(F)(F)F)n2)c(OC)c1	-9.6%	-8%	8%
Clc1ccccc1-c1nc(N2CCNCC2)c2ccccc2n1	6.7%	12%	3%
CC(=O)NCc1c(I)c(NC(C)=O)c(I)c(C(=O)O)c1I	0.9%	-18%	9%
N[C@H](Cc1o[nH]c(=O)c1Cl)C(=O)O	3.1%	-15%	8%
COc1ccc2[nH]cc(CCNc3ncncc3-c3cccc(C#N)c3)c2c1	3.4%	-23%	-1%
c1ccc(-c2cccc(N3CCCC4(CCNCC4)C3)c2)cc1	1.2%	10%	-11%
O=c1c(CCc2ccccc2)nc2cnc(N3CCOCC3)nc2n1CCc1ccccc1	0.7%	-10%	-3%
COCCn1c(=O)c(C)nc2cncnc21	-0.4%	-13%	20%
O=C(c1cccc(F)c1)N1CCC2(CC1)CCN(c1ccccc1)CC2	0.8%	-23%	3%
O=C(Nc1cccc(F)c1)N1CC[C@@]2(CCCN(C(=O)c3cccc(F)c3)C2)C1	2.5%	-6%	4%

Part of the list above in a different format:
Value order: Cruzain Triton | 2A StopGo | Cruzain inh noDet
COc1ccc2[nH]cc(CCNc3ncncc3-c3cccc(C#N)c3)c2c1
  3.4% | -23% | -1%
c1ccc(-c2cccc(N3CCCC4(CCNCC4)C3)c2)cc1
  1.2% | 10% | -11%
O=c1c(CCc2ccccc2)nc2cnc(N3CCOCC3)nc2n1CCc1ccccc1
  0.7% | -10% | -3%

(continued)
SMILES	Cruzain Triton	2A StopGo	Cruzain inh noDet
O=C(c1cc(C(F)(F)F)cc(C(F)(F)F)c1)N1CCC2(CC1)CN(Cc1ccncc1)C2	-1.4%	-16%	-20%
O=c1c(-c2ccc(O)cc2)coc2c(C3OC(CO)C(O)C(O)C3O)c(O)ccc12 (stereo not drawn)	7.2%	-8%	-4%
N[C@@H](Cn1ccc(=O)n(Cc2ccccc2C(=O)O)c1=O)C(=O)O	-4.4%	-1%	9%
CCCCC[C@H](O)/C=C/[C@H]1C(=O)C=C[C@@H]1C/C=C\CCCC(=O)O	0.2%	-12%[6.7 µM]	3%
Cc1ccc(C[N+](C)(C)C)o1	7.8%&0.1%	-15%&-6%&-14%	3%&8%
COc1ccc2[nH]cc(CCNc3cc(-c4ccccc4OC)ncn3)c2c1	-2.0%	-23%	-12%
CCCN(C/C=C\I)[C@@H]1CCc2cccc(O)c2C1	-0.6%	-10%	9%
Cc1cc(=O)c2c(O)c3c(O)cc(O)c4c5c(O)cc(O)c6c(O)c7c(=O)cc(C)c8c1c2c(c34)c(c65)c78	-24%	-4%	?
C[C@H]1CC[C@@H]2N(C1)C[C@H]1[C@@H]3C[C@H]4[C@@H](C/C(=N\O)[C@H]5C[C@@H](O)CC[C@@]54C)[C@@H]3CC[C@H]1[C@]2(C)O	2.1%	-7%	-9%
Cc1noc(C)c1-c1cc(N2CCNCC2)ncn1	5.9%	?	11%
CCCCCS(=O)(=O)CCCCCCCCCCn1c(-c2ccc(O)cc2)c(C)c2cc(O)ccc21	9.5%	?	?
CCCCCCCC/C=C\CCCCCCCC(=O)OC[C@H](CO)OC(C)=O	0.7%	-20%[6.7 µM]	3%
COc1ccc(C(=O)N2CCC3(CCCN(C(=O)Nc4cccc(C#N)c4)C3)CC2)cc1	-1.0%	8%	-5%
O=C(c1ccncc1)N1CCC2(CC1)CN(c1cccc(-c3ccccc3)c1)C2	-4.9%	?	?
O=C(O)C(O)[C@@](O)(Cc1ccc(O)cc1)C(=O)O (stereo partly drawn)	8.8%	30%	3%
CC(C)CN1CCC2(CC1)CCN(C(=O)c1ccco1)CC2	4.5%	-9%	1%
Cn1cccc1C(=O)N1CCC2(CC1)CN(C(=O)Nc1ccccc1)C2	0.1%	-12%	-4%
CC(=O)C1CCC2C3CC=C4CC(O)CC[C@@]4(C)C3CC[C@]12C (stereo partly drawn)	0.4%	-11%	0%
COc1ccc2c(c1O)-c1c(OC)c(OC)cc3c1[C@@H](C2)N(C)CC3	9.6%	15%	2%
COCCn1c(=O)c(C)nc2cnc(Nc3cccc(OC)c3)nc21	-4.7%	-18%	8%
CN(C)c1ccc(-c2cc(NCc3cccnc3)ncn2)cc1	?	51%[activator]	-26%
CCCCCCCCCCCCC/C=C/[C@@H](O)[C@H](CO)NC(=O)CCCCCCCCCCCCCCC	4.5%	-6%[6.7 µM]	-3%
CC(C)N1C(=O)c2ccccc2NS1(=O)=O	-0.1%	-3%	5%
CCNCCCNCCCCNCCCNCC	4.8%	-20%	-2%
CC(C)NC(=O)N1CC[C@@]2(CCCNC2)C1	4.6%	-13%	1%
O=C(Nc1cccc(F)c1)N1CC2(CCNCC2)C1	-5.0%	-6%	-14%
Cn1c(=O)c(-c2cc(F)cc(F)c2)nc2cnc(Oc3cccc(Cl)c3)nc21	3.3%	2%	4%
c1ccc(Nc2nc(-c3ccc4c(c3)OCO4)nc3ccccc23)cc1	-11%	-27%	?
N#Cc1ccccc1-c1ccc2ncnc(N3CCNCC3)c2c1	1.2%	-2%	3%
O=c1c(CCc2ccccc2)nc2cnc(N3CCOCC3)nc2n1-c1ccccc1	3.6%	-22%	2%
COc1ccc(/C=C2\NC(=O)[C@@H]3Cc4ccccc4CN3C2=O)cc1	3.5%	28%	-5%
COC(=O)c1c(C)cc(OC)cc1O	1.9%	8%	-3%
O=C(Oc1ccccc1)N1CCC2(CCCN(c3ccccn3)C2)CC1	-2.9%	-20%	-13%
COC1[C@H](OC(N)=O)C(O)[C@H](Oc2ccc3c(O)c(NC(=O)c4ccc(O)c(CC=C(C)C)c4)c(=O)oc3c2C)OC1(C)C (stereo partly drawn)	-23%	24%	9%
CN1CCC2(CC1)CCN(C(=O)c1ccncc1)CC2	-1.2%	-11%	0%
N#C/C(=C\c1ccc(O)c(O)c1)C(=O)OCCc1cccs1	-20%	-4%	6%
Cn1cccc1C(=O)N1CCC2(CCN(Cc3ccncc3)CC2)CC1	-4.3%	-17%	0%
c1ccc(CNc2cc(-c3cccnc3)ncn2)cc1	3.2%	0%	-7%
O=C(c1cccc(F)c1)N1CCC[C@@]2(CCN(c3ncccn3)C2)C1	2.0%	-14%	-3%
Clc1ccccc1-c1cncnc1NCc1cccs1	-2.7%	-12%	2%
CNc1ncnc2ccc(-c3cccc(OC)c3)cc12	-4.5%	-28%	-8%
O=c1c(-c2cc(F)cc(F)c2)nc2cnc(N3CCOCC3)nc2n1CCc1ccccc1	1.7%	-10%	-4%
CC[C@]1(O)C[C@@H]2CN(CCc3c([nH]c4ccccc34)[C@](C(=O)OC)(c3cc4c(cc3OC)N(C=O)[C@H]3[C@@](O)(C(=O)OC)[C@H](C(=O)OC)[C@@]5(CC)C=CCN6CC[C@]43[C@H]65)C2)C1	-4.7%	4%	6%
CC/C=C\C/C=C\C/C=C\CCCCCCCCCCCC(=O)O	1.7%	-18%[6.7 µM]	3%
OCC(O)C(O)[C@H](O[C@H]1OC(CO)C(O)C(O)C1O)[C@H](O)CO (stereo partly drawn)	4.0%	-14%	0%
Cn1cc(-c2nc3cnc(N4CCOCC4)nc3n(CCC#N)c2=O)c2ccccc21	-1.5%	-17%	-2%
Cn1cccc1C(=O)N1CCC[C@@]2(CCN(C(c3ccccc3)c3ccccc3)C2)C1	0.3%	-8%	1%
Cc1cc2nc3c(=O)[nH]c(=O)nc-3n(CC(O)C(O)C(O)CO)c2cc1C (stereo not drawn)	-7.4%&-10%&-7.3%&-6.2%	19%	-10%&-2%&-6%&6%
Cc1cccc(CNc2ncnc3ccc(-c4cccc(C#N)c4)cc23)c1	-0.7%	?	-3%
CS(=O)(=O)N1CCC[C@@]2(CCN(c3ccccc3)C2)C1	-2.7%	3%	10%
New compounds follow
SMILES	Cruzain Triton	2A StopGo	Cruzain inh noDet
COc1cc(C2=N/C(=C\c3ccccc3)C(=O)O2)cc(OC)c1OC	2.7%	-12%	-8%
CC(=O)NCCNc1ncnc2ccc(-c3ccoc3)cc12	-4.6%	-14%	-16%
Cn1c(=O)c(-c2ccccc2)nc2cnc(Nc3ccccc3)nc21	-1.6%	-5%	0%
O=C(c1cc(C(F)(F)F)cc(C(F)(F)F)c1)N1CCC2(CC1)CN(c1ccncc1)C2	-2.4%	10%	-8%
COCCn1c(=O)c(-c2ccc(F)cc2)nc2cnc(N3CCOCC3)nc21	-1.7%	-16%	-2%
COc1cccc(Cn2c(=O)c(C)nc3cnc(Oc4cccc(Cl)c4)nc32)c1	-7.1%	-19%	?
CS(=O)(=O)Nc1cccc(-c2nc(NCc3ccccc3)c3ccccc3n2)c1	-8.6%	-21%	1%
O=S(=O)(c1ccccc1)N1CCC2(CCCN(Cc3ccncc3)C2)CC1	2.3%	-1%	0%
NC(N)=Nc1ccc(Cl)cc1	-1.7%	-20%	3%
O=C(c1cccc(F)c1)N1CCC[C@@]2(CCN(Cc3ccncc3)C2)C1	0.4%	-5%	-3%

Reformatted: entries from further up.
mol,Cruzain Triton,2A StopGo,Cruzain inh noDet
COc1cccc(Cn2c(=O)c(C)nc3cnc(Oc4cccc(Cl)c4)nc32)c1,-7.1%,-19%,?
CS(=O)(=O)Nc1cccc(-c2nc(NCc3ccccc3)c3ccccc3n2)c1,-8.6%,-21%,1%
O=S(=O)(c1ccccc1)N1CCC2(CCCN(Cc3ccncc3)C2)CC1,2.3%,-1%,0%
NC(N)=Nc1ccc(Cl)cc1,-1.7%,-20%,3%
O=C(c1cccc(F)c1)N1CCC[C@@]2(CCN(Cc3ccncc3)C2)C1,0.4%,-5%,-3%

Next records.
SMILES	Cruzain Triton	2A StopGo	Cruzain inh noDet
CC(C)(Cc1c[nH]c2ccc(Cl)cc12)NCCOc1ccccc1OCC1CC1	-4.1%	?	11%
Cc1cnc(CNc2ncnc3ccc(-c4ccccc4C)cc23)cn1	-0.5%	?	3%
CS(=O)(=O)Nc1cccc(-c2ccc3ncnc(N4CCNCC4)c3c2)c1	3.4%	0%	1%
CN(Cc1ccco1)c1ncncc1-c1ccccc1Cl	-7.0%	-15%	-3%
COc1cc2c(cc1OC)C1(O)C(=O)c3ccc(O)c(C(=O)O)c3OC1CO2 (stereo not drawn)	1.4%	15%	-10%
O=C(c1csnn1)N1CCC2(CCN(Cc3ccccc3)CC2)CC1	-8.5%	-4%	-8%
CC(=O)N1CCC2(CCCN(Cc3nccs3)C2)CC1	5.0%	-3%	-13%
CN1CCCC2(CCN(C(=O)c3csnn3)CC2)C1	-4.0%	-6%	-3%
CC(=O)Oc1ccc2c(c1OC(C)=O)OCC1(O)Cc3c(cc(OC(C)=O)c(OC(C)=O)c3OC(C)=O)C21 (stereo not drawn)	-4.1%	-5%	?
COCC(=O)N1CCC2(CC1)CCN(c1cccc(-c3ccccc3)c1)CC2	-0.8%	-29%	?
